High-throughput results as filed in PubChem.
T. gondii HeLa: T. gondii ME49Luc in HeLa cells, luciferase assay, 72 h, no IFN-y (AID 1259421); T. gondii ME49Luc in HeLa, luciferase, 72 h, no IFN-y; active compounds read low; reference of the scale and settings of repeat entries not given here; many of its hits are not listed in these tables; 6,400 compounds, 9.6% hits; activity change, negative = inhibition, %;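 active means activity change below -70%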;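 further: about 20 µM from a 10 mM stock diluted 500-fold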
* hit, by the source's call; & = joins results of further samples; ! = a repeat was not active. Only part of the results is shown; the hit share may differ from the screen's.

Compound	T. gondii HeLa
C[C@H]1COC2=C1C(=O)C(=O)c1c2ccc2c1CCCC2(C)C	2
O=S1(=O)c2cccc3cccc(c23)N1CCCN1CCN(c2ccc(F)cc2)CC1	9&18
COC(=O)C1=C(C)NC(C)=C(C(=O)OCCCN2CCC(c3ccccc3)(c3ccccc3)CC2)[C@@H]1c1cccc([N+](=O)[O-])c1	-90*
COc1ccc(-n2c(C)c([N+](=O)[O-])c3ccc(O)cc32)cc1	3
CC(C)Nc1cc(-c2c[nH]c(C(=O)N[C@H](CO)c3cccc(Cl)c3)c2)c(Cl)cn1	-25
O=C(Nc1cn[nH]c1-c1nc2ccc(CN3CCOCC3)cc2[nH]1)NC1CC1	-84*
O=c1[nH]c2cc(Cl)c(Cl)c([N+](=O)[O-])c2[nH]c1=O	8
N[C@H](Cc1ccccc1)C(=O)O	-3

Next part:
Compound	T. gondii HeLa
CC1(C)CCC(c2ccc(Cl)cc2)=C(CN2CCN(c3ccc(C(=O)NS(=O)(=O)c4ccc(N[C@H](CCN5CCOCC5)CSc5ccccc5)c(S(=O)(=O)C(F)(F)F)c4)cc3)CC2)C1	-89*
CCC1OC(=O)[C@H](C)C(=O)[C@H](C)[C@@H](OC2O[C@H](C)C[C@H](N(C)C)[C@H]2O)[C@](C)(OC)C[C@@H](C)C(=O)[C@@H](C)[C@@H]2N(CCCCn3cnc(-c4cccnc4)c3)C(=O)O[C@]12C (stereo partly specified)	-1
O=C(Nc1cc(C(F)(F)F)cc(C(F)(F)F)c1)c1cc(Cl)ccc1O	-84*
O=C(O)CC/C=C/CC1COC(c2ccccc2Cl)OC1c1ccccc1O (stereo unspecified)	11
O=c1oc(Cl)c(Cl)c2ccccc12	3
COC(=O)Nc1ccc2[nH]cc(CCNC(C)=O)c2c1	-7&-4
COc1cc(SC)ccc1-c1nc2ccncc2[nH]1	-3
CCCCCCCCCCCCCCOc1ccc(C(=O)O)o1	-27

(further entries)
Compound	T. gondii HeLa
COC(=O)c1ccccc1NC(=O)c1ccc(F)cc1	41&32
CN1CCc2c(c3ccccc3n2Cc2ccccc2)C1	18&24&28
Brc1c(Br)c(Br)c2n[nH]nc2c1Br	22&5
CN1CCN(c2c(F)cc3c(=O)c(C(=O)O)cn4c3c2OCN4C)CC1	17&12
N#CCC(=O)NN	11
CC(=O)O[C@@H]1CC2C(C)(CC[C@H](O)C2(C)C)C2CC[C@]3(C)C(=CC(=O)O[C@H]3c3ccoc3)C21C (stereo partly specified)	-5
C=CCc1ccccc1OCC(O)CNC(C)C (stereo unspecified)	13&2
NC(Cc1ccc(F)cc1)C(=O)O (stereo unspecified)	2

Later entries:
Compound	T. gondii HeLa
Cc1c(O)c(=O)n(-c2ccccc2)n1C	-81*!
CC(C)(C)NC[C@H](O)COc1ccccc1C1CCCC1	1
C[C@H](N)[C@H](O)c1cccc(O)c1	76
O=P(O)(O)C(Cl)(Cl)P(=O)(O)O	23
O=C(NO)c1cnc(N2CCN(S(=O)(=O)c3ccc4ccccc4c3)CC2)nc1	-83*
C/C(=C/c1ccc(C(=O)O)cc1)c1ccc2c(c1)C(C)(C)CCC2(C)C	-3
O=C(NCCCl)N(CCCl)[NH2+][O-]	-12
COc1ccc(CCO[C@@H]2CCCC[C@H]2N2CC[C@@H](O)C2)cc1OC	23

Going on with the list.
Compound	T. gondii HeLa
O=C(c1ccc(F)cc1)C1CCN(CCn2c(=S)[nH]c3ccccc3c2=O)CC1	5&-1
Cc1ccc2c(=O)c3cccc(CC(=O)O)c3oc2c1C	10
c1ccc2nc(C3=NCCN3)cnc2c1	19&3
CNCCCC1c2ccccc2C=Cc2ccccc21	37
COc1cc(OC)cc(OC)c1	10
CC(=O)N[C@H]1CSSC[C@@H](C(N)=O)NC(=O)[C@H](C(C)C)NC(=O)[C@H](C)NC(=O)[C@H](Cc2cnc[nH]2)NC1=O	-4
O=C(/C=C/c1ccc2ccccc2n1)c1ccncc1	3
Nc1nc2ncc(CNc3ccc(C(=O)N[C@@H](CCC(=O)O)C(=O)O)cc3)nc2c(=O)[nH]1	5&10

Other results.
Compound	T. gondii HeLa
CCCCCCCCCCCCCCCCCCc1ccc(C(=O)/C=C/C(=O)O)cc1	12
COc1ccc2nc(SCc3ncc(C)c(OC)c3C)[nH]c2c1	-29
O=C(CCCCCCNC(=O)c1cnc(N(c2ccccc2)c2ccccc2)nc1)NO	-11
O=C(O)[C@H](O)[C@@H](O)[C@H](O[C@@H]1O[C@H](CO)[C@H](O)[C@H](O)[C@H]1O)[C@H](O)CO	11
COc1ccccc1N1CCN(CC2CN3C(=O)N(C)c4ccccc4C3=N2)CC1 (stereo unspecified)	2
CC1(C)CC1C(=O)N/C(=C\CCCCSCC(N)C(=O)O)C(=O)O (stereo unspecified)	8
C[C@@]1(c2cc(-c3cncnc3)c(F)cc2F)CCSC(N)=N1	14
CC(=O)Nc1ccc(C(=O)NC(C)(C)C)cc1	11

Part of the list above in order of number of heavy atoms, ascending:
Compound	T. gondii HeLa
C[C@@]1(c2cc(-c3cncnc3)c(F)cc2F)CCSC(N)=N1	14
O=C(O)[C@H](O)[C@@H](O)[C@H](O[C@@H]1O[C@H](CO)[C@H](O)[C@H](O)[C@H]1O)[C@H](O)CO	11
CCCCCCCCCCCCCCCCCCc1ccc(C(=O)/C=C/C(=O)O)cc1	12

Other records:
Compound	T. gondii HeLa
Cn1cc(-c2[nH]c3cc(NC(=O)[C@H](N)C4CCCCC4)cc4c3c2C=NNC4=O)cn1	-92*!
COc1ncc(-c2ccc3nccc(-c4ccnnc4)c3c2)cc1NS(=O)(=O)c1ccc(F)cc1F	-79*
C[C@H](O)[C@H](O)[C@H]1CNc2nc(N)[nH]c(=O)c2N1	23
O=C(OCCOCCO)c1ccccc1Nc1cccc(C(F)(F)F)c1	12
CC(C)Oc1ccc2c(=O)c3cc(C(=O)O)ccc3oc2c1	-4&93
C[C@H]1CC2C([C@@H](O)C[C@@]3(C)C2CC[C@]3(O)C(=O)COC(=O)CCC(=O)O)[C@@]2(C)C=CC(=O)C=C12 (stereo partly specified)	4&5
NC(N)=NC(=O)c1cnccn1	11
CCOCCOc1ccccc1C(N)=O	11

Next results.
Compound	T. gondii HeLa
CCCN(CCC)CC1CCCCN1CCNC(=O)N1c2ccccc2C(=O)Nc2cccnc21 (stereo unspecified)	3
C=CC(=O)Nc1cccc(Oc2nc(Nc3ccc(N4CCN(C)CC4)cc3OC)ncc2Cl)c1	-35
O=C(O)C1=CCCN(CCON=C(c2ccccc2)c2ccccc2)C1	4&6
O=c1c(O)cccc2cc(O)c(O)c(O)c12	-22
CC1=C(C(=O)Nc2cc3cn[nH]c3cc2F)C(c2ccc(C(F)(F)F)cc2)CC(=O)N1 (stereo unspecified)	-48
Cc1cc(Nc2nc(N[C@@H](C)c3ccc(F)cc3)c(C#N)cc2F)n[nH]1	-55
CCN(Cc1ccccc1)C(=O)Cn1c(=O)n(C)c2cnc(-c3ccccc3)nc21	10
O=C1NCCN1c1ncc([N+](=O)[O-])s1	9&3

The list continues.
Compound	T. gondii HeLa
COc1ccc(-c2coc3cc(O)ccc3c2=O)cc1	251&198
Cc1ccc(-c2ncc(Cl)cc2-c2ccc(S(C)(=O)=O)cc2)cn1	2&2
N#CCNC(=O)c1ccc(-c2ccnc(Nc3ccc(N4CCOCC4)cc3)n2)cc1	-89*
O=c1[nH]c(=O)c2ccccc2o1	-96*!
COc1cc2ccc(=O)oc2cc1O	8
O=C(O)[C@H](Cc1c[nH]c2ccccc12)N1C(=O)c2ccccc2C1=O	15
CO[C@H]1/C=C\C=C(/C)C(=O)NC2=CC(=O)C(NCCN(C)C)=C(C[C@@H](C)C[C@H](OC)[C@H](O)[C@@H](C)/C=C(\C)[C@@H]1OC(N)=O)C2=O	-80*!
C#Cc1cccc(Nc2ncnc3cc4c(cc23)OCCOCCOCCO4)c1	6

Three consecutive entries already listed:
Compound	T. gondii HeLa
O=C(O)[C@H](Cc1c[nH]c2ccccc12)N1C(=O)c2ccccc2C1=O	15
CO[C@H]1/C=C\C=C(/C)C(=O)NC2=CC(=O)C(NCCN(C)C)=C(C[C@@H](C)C[C@H](OC)[C@H](O)[C@@H](C)/C=C(\C)[C@@H]1OC(N)=O)C2=O	-80*!
C#Cc1cccc(Nc2ncnc3cc4c(cc23)OCCOCCOCCO4)c1	6

New compounds follow:
Compound	T. gondii HeLa
CCCCNCC1COc2ccccc2O1 (stereo unspecified)	1
O=P(O)(O)OC[C@H]1OC(O)[C@H](O)[C@@H](O)[C@@H]1O (stereo partly specified)	7
O=c1sn(-c2cccc3ccccc23)c(=O)n1Cc1ccccc1	52
COc1ccc([C@H]2COc3c(ccc(O)c3OC)C2)c(OC)c1O	9
NC(=O)Nc1cc(-c2cccc(F)c2)sc1C(=O)N[C@H]1CCCNC1	-88*
COc1ccc2cccc(CCNC(C)=O)c2c1	2
CN=C(N)NCCC[C@H](N)C(=O)O	18
CN1CCN(C(c2ccccc2)c2ccc(Cl)cc2)CC1 (stereo unspecified)	3&32

New compounds follow
Compound	T. gondii HeLa
O=C(O)C(O)Cc1ccc(O)c(O)c1 (stereo unspecified)	12
CC(=O)c1cc2ccccc2oc1=O	-2
Nc1ncnc2c1c(-c1cccc(OCc3ccccc3)c1)cn2C1CC(CN2CCCC2)C1 (stereo unspecified)	-69
O=C(O)CCCN1C(=O)c2cccc3cccc(c23)C1=O	-5
CN1C(=O)C[C@@H](C(=O)N[C@@H](Cc2cnc[nH]2)C(=O)N2CCC[C@H]2C(N)=O)NC1=O	-66
CCC(C)(C)c1ccc(CC(C)CN2C[C@@H](C)O[C@@H](C)C2)cc1 (stereo partly specified)	15
Fc1ccc(-n2cc(CCCCN3CCC4(CC3)OCc3ccccc34)c3ccccc32)cc1	-77*
CC(C)(C)/[N+]([O-])=C/c1ccc(S(=O)(=O)O)cc1S(=O)(=O)O	9

Four entries from above, with each value named:
O=C(O)CCCN1C(=O)c2cccc3cccc(c23)C1=O
  T. gondii HeLa = -5
CN1C(=O)C[C@@H](C(=O)N[C@@H](Cc2cnc[nH]2)C(=O)N2CCC[C@H]2C(N)=O)NC1=O
  T. gondii HeLa = -66
CC(C)(C)/[N+]([O-])=C/c1ccc(S(=O)(=O)O)cc1S(=O)(=O)O
  T. gondii HeLa = 9
Nc1ncnc2c1c(-c1cccc(OCc3ccccc3)c1)cn2C1CC(CN2CCCC2)C1 (stereo unspecified)
  T. gondii HeLa = -69

Further results.
Compound	T. gondii HeLa
CC(=O)NCCc1c(Cc2ccccc2)[nH]c2ccccc12	-2
N#CC(Cc1ccc(O)cc1)c1ccc(O)cc1 (stereo unspecified)	5&6
O=C(O)c1cc2cc(Cl)ccc2[nH]1	11
CCCNC(=O)NS(=O)(=O)c1ccc(Cl)cc1	5&22
O=C(O)CCc1c(C(=O)O)[nH]c2cc(Cl)cc(Cl)c12	13
O=C(O)/C=C/c1ccc(Cn2ccnc2)cc1	8&0
Cc1cc(C)cc(NC(=O)Cc2ccc(OC(C)(C)C(=O)O)cc2)c1	26
CCCCCCCCCCCCCCCC(=O)NCCO	0&23

Following part.
Compound	T. gondii HeLa
Cc1c(Cn2c(C)nc3c(C(=O)O)cc(N4CCOCC4)cc32)cccc1C(F)(F)F	29
COc1cc2ncnc(Nc3cccc(Br)c3)c2cc1OC	-28
COc1cc2c(Nc3ccc(NC(=O)c4ccccc4)cc3)ncnc2cc1OCCCN1CCOCC1	-23&-51
CCCCCCCCCCCCCCCCCCCCCC(=O)O	-2
CCC1(c2cnc[nH]2)Cc2ccccc2C1	52
O=C(Nc1cccnn1)N1CCC(=Cc2cccc(Oc3ccc(C(F)(F)F)cn3)c2)CC1	-19
Oc1cccc(Nc2ccc(Nc3cccc(O)c3)nn2)c1	9
CC(C)C[C@H](NC(=O)[C@@H](COC(C)(C)C)NC(=O)[C@H](Cc1ccc(O)cc1)NC(=O)[C@H](CO)NC(=O)[C@H](Cc1c[nH]c2ccccc12)NC(=O)[C@H](Cc1cnc[nH]1)NC(=O)[C@@H]1CCC(=O)N1)C(=O)N[C@@H](CCCN=C(N)N)C(=O)N1CCC[C@H]1C(=O)NNC(N)=O	9

(further entries)
Compound	T. gondii HeLa
Cc1c(C(=O)Nc2ccc(N3CCC(N4CCOCC4)CC3)c(C#N)c2)cnn1-c1ccc(Cl)cc1	-92*
C#C[C@]1(O)CC[C@H]2[C@@H]3CCC4=CCCC[C@@H]4[C@H]3C(=C)C[C@@]21CC	35
FC(F)(F)COCC(F)(F)F	8
C[N+](C)(CF)CCO	19
O=C(OC1C(OC(=O)c2cccnc2)C(OC(=O)c2cccnc2)C(OC(=O)c2cccnc2)C(OC(=O)c2cccnc2)C1OC(=O)c1cccnc1)c1cccnc1 (stereo unspecified)	13&-5
CC(=O)O[C@H]1C[C@@]2(C)[C@@H](C[C@@H](O)C3[C@]2(C)CC[C@H]2[C@H](C)[C@H](O)CC[C@]32C)/C1=C(/CCC=C(C)C)C(=O)O (stereo partly specified)	-22&-17
O=C(O)/C=C/C=C/c1ccccc1	0
O=C1N[C@@H]2[C@@H](O)[C@@H](O)[C@H](O)[C@@H](CO)N2C1=O	12

Next part.
Compound	T. gondii HeLa
COc1ccc2c3c1OC1CC(O)C=CC31CCN(C)C2 (stereo unspecified)	5
CCCC[C@@H](CC)COC(=O)C(C#N)=C(c1ccccc1)c1ccccc1	-54
NNC(=O)c1ccncc1	-1&6&7
Nc1nc(N)c2nc(-c3cccc(O)c3)cnc2n1	-69
Nc1[nH]nc2nnc(-c3c(-c4ccccc4)nn4ccccc34)cc12	-19
CC(C)N=c1cc2n(-c3ccc(Cl)cc3)c3ccccc3nc-2cc1Nc1ccc(Cl)cc1	-81*!
Cc1nccn1CC1CCc2c(c3ccccc3n2C)C1=O (stereo unspecified)	-2
COc1ccc([C@@H]2CC(=O)c3c(O)cc(O[C@@H]4O[C@H](CO[C@@H]5O[C@@H](C)[C@H](O)[C@@H](O)[C@H]5O)[C@@H](O)[C@H](O)[C@H]4O)cc3O2)cc1O	0
